Compound activity deposited in PubChem by National Center for Advancing Translational Sciences (NCATS).
TSHR ag – TSH receptor (human) agonism | 73,000 compounds, 0.48% hits | HEK293-CNG-TSHR cells (CNG channel as cAMP sensor), membrane potential dye, cAMP | P16473 | Potency, µM (titrated, usually from 57.1 µM), for inactives: at the highest dose activation, actives largely listed as activators | AID 926; active = well fitted activation curve of enough size with the parental cells flat; inconclusive = any curve in the parental cells; inactive = parental cells flat and receptor cells flat or falling; also: potency is read from the fitted curve at half-maximal effect; % of control where 0% means no effect; weak receptor curves with flat parental cells got no call and are not listed
Target sequence (P16473 whole entry, looked up): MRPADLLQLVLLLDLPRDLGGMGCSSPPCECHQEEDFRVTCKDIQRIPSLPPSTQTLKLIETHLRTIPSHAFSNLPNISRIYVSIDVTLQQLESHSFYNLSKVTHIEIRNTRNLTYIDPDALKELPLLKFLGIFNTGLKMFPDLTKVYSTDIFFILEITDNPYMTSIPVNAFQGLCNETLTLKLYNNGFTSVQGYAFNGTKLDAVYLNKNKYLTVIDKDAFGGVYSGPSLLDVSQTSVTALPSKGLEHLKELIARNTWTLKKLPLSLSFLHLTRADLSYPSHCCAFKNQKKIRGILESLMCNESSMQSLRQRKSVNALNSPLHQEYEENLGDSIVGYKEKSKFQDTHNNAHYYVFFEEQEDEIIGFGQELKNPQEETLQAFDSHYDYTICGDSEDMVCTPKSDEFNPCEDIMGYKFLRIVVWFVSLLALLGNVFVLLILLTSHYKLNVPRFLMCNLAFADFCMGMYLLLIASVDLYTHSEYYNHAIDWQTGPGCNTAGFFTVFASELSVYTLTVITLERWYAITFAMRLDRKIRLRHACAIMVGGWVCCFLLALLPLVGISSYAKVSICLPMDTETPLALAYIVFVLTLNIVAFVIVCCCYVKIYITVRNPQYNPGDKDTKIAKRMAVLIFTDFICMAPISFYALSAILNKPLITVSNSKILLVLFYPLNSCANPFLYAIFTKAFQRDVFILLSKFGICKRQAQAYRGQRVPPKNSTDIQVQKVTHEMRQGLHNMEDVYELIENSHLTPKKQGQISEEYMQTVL
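cAMP rise detected as CNG-channel membrane depolarization by fluorescent dye (emission 590 nm), 30 min after compound, following 60 min dye loading containing 100 uM RO 20-1724 at room temperature. Cells: TSHR/CNG HEK 293, with parental CNG HEK 293 as control.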
AID923 – qHTS Assay for Allosteric/Competitive Inhibitors of Caspase-1: Spectroscopic Profiling in AFC Spectral Region; AID 923, 2007; 75,000 compounds, 1.1% hits; compound fluorescence, AFC spectral region (405/520 nm); almost no hit is shown here; Potency, µM (highest dose often 57.5 µM), for inactives: at the highest dose fluorescence increase, most hits filed as activators; active = well fitted activation curve with a large enough effect; inconclusive = small, poorly fitted or top-dose-only effect;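 also: potency is read from the fitted curve at half-maximal effect; 0% is about no effect; scaled to a free AFC standard on each plate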
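Compound autofluorescence profiled at 405 nm ex/520 nm em during kinetic caspase 1 run (50 nM enzyme, 5 uM Ac-WEHD-AFC, HEPES pH 7.5, 10 mM DTT). Titration up to 57 uM; baseline from regression intercept, normalized to AFC standard curve.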
Resorufin autofl – resorufin region autofluorescence; Compound fluorescence, resorufin region 547/598 nm, buffer; hits give high values; max dye-equivalent concentration, M; 59,000 compounds, 0.04% hits; active = above 10 nM dye equivalent; inconclusive = 1 to 10 nM; inactive = 1 nM or less; a few of its hits are not listed in these tables; also: highest value over a series up to 38 µM
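Read-out: intrinsic compound fluorescence at ex 547/em 598 nm after 15 min at RT in pH 8.0 Tris (100 mM). Values expressed as resorufin-equivalent concentration from per-plate standard series.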
A647 autofl – compound fluoresces in the A647 spectral region. 59,000 tested, under 10 active. Compound fluorescence, A647 channel (570/671 nm), Tris buffer. max dye-equivalent concentration, M. AID 592; active means above 1 µM dye equivalent; inconclusive means 0.1 to 1 µM; inactive means 0.1 µM or less;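 also: values scaled relative to a standard on each plate; highest value over a series up to 38 µM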
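Tris 100 mM pH 8.0; cpd + A647 stds pin-transferred; 15 min RT; CCD imager, ex 570/em 671. Output = A647-equivalent conc. per cpd conc.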
A488 autofl – A488 region autofluorescence. compound autofluorescence, A488 spectral region, dye equivalency; hits give high values. AID 591. max dye equivalency, M. 59,000 compounds, 0.1% hits; active = above 10 nM dye equivalent; inconclusive = 1 to 10 nM; inactive = 1 nM or less; about half of its hits are not listed in these tables;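 also: highest value over a series up to 38 µM; compound alone in buffer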
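Compounds pin-transferred into 100 mM Tris buffer, pH 8.0, incubated 15 min at room temperature, then imaged with 480 nm excitation/540 nm emission filters. Fluorescence converted to Alexa 488 dye-equivalent concentration via an on-plate six-point A488 standard curve.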
Numbers without * were called inactive; i = inactive; ? = inconclusive; . = no result given; & = joins results of further samples; [ ] = remark or other dose. These rows are one share of the data; count on the stated rates, not on these rows.

compound	Resorufin autofl	AID923	TSHR ag	A488 autofl	A647 autofl
COCCn1nnnc1C(c1ccc(OC)cc1OC)N1CCN(c2ccccc2)CC1 (stereo not given)	i	-0.1%	8%	i	6.5e-09
CCOC(=O)Cc1csc(NC(=O)CCNS(=O)(=O)c2ccc3c(c2)CCC(=O)N3)n1	i	1.2%	1%	i	4.7e-09
CCOC(=O)c1oc2cc(O)cc(C)c2c(=O)c1-c1cscn1	i	.	.	i	1e-09
N#CNC1=NCN(Cc2ccccc2)CN1	i	0.6%	1%	i	2.5e-08
CC(OC(=O)C1CCN(S(=O)(=O)c2ccccc2)CC1)C(=O)Nc1ncc(Cl)cc1Cl (stereo not given)	i	-0.4%	10%	i	1.3e-08
CCCCOC(=O)c1[nH]c2c(c1C)C(=O)CC(c1cc(OC)c(OC)c(OC)c1)C2 (stereo not given)	.	1.8%	?	.	.
O=C(O)c1ccccc1C(c1ccc(O)cc1)c1ccc(O)cc1	.	-0.1%	8%	.	.
CCCC(=O)N(C)c1nnc(-c2ccc(OC)cc2)s1	i	2.2%	4%	i	6.2e-08
CCOC(=O)N1CCN(C(=O)CCNS(=O)(=O)c2cc(Br)cnc2N)CC1	i	1.5%	-2%	i	1e-09
Cc1nc2ccccn2c1/C(O)=C1\C(=O)C(=O)N(CCN2CCOCC2)C1c1ccncc1 (stereo not given)	i	0.2%	-1%	i	1.5e-09
COC(=O)c1ccc(Cn2c(O)c(N=O)c3ccccc32)o1	i	.	.	i	4.3e-08
CCCCCc1c(C)nc(SCC(=O)O)[nH]c1=O	i	0.8%	3%	i	8.9e-09
COc1ccc2cc(CCNC(=O)CC(C)(C)C)c(=O)[nH]c2c1	i	1.3%	-2%	i	4.6e-09
CC1CCN(CCNC(=O)CCS(=O)(=O)c2ccc(Br)cc2)CC1	i	-0.1%	6%	i	2.7e-08
O=C(O)C(c1ccccc1)N1CCCC1 (stereo not given)	i	1.6%	2%	i	1e-09
O=S(=O)(c1ccccc1)N(CC(O)CN1CCCCC1)c1ccccc1 (stereo not given)	i	.	.	i	1e-09
Cc1nn(-c2ccccc2C(=O)O)c(=O)c2ccccc12	i	-1.1%	10µM*	i	2.2e-08
Cc1nc2ccc(S(=O)(=O)NC(C(=O)NCc3ccco3)C(C)C)cc2s1 (stereo not given)	.	0.3%	?	.	.
CCOC(=O)Cn1c(C(=O)OCC)cc2sccc21	i	0.7%	?	i	5.3e-08
COC(=O)c1sc(S(=O)(=O)N2CCN(c3ccccc3)CC2)c(C(=O)OC)c1C	i	0.7%	9%	i	4.9e-09
Cc1cc(NC(=O)COC(=O)c2ccc(S(=O)(=O)N3CCCc4ccccc43)cc2)no1	i	0.2%	16µM*	i	1e-09
COc1cccc2cc(-c3nnc(SCC(=O)Nc4nc(C)cs4)n3C)oc12	i	-0.3%	?	i	1e-09
CC1CCN(S(=O)(=O)c2ccc3ncn(CC(=O)N(C)Cc4ccccc4)c(=O)c3c2)CC1	i	-2.1%	-11%[11.4 µM]	i	1e-09
COc1ccc(S(=O)(=O)NCC2CCC(C(=O)NCc3ccco3)CC2)cc1 (stereo not given)	i	-2.5%	-3%	i	1.1e-08
CCOC(=O)C(C(=O)Nc1nccs1)C1CCCCC1 (stereo not given)	.	2.4%	17%	.	.
Nc1nc2nonc2nc1N1CCCCC1	i	11%	23%	i	1e-09
Cc1cccc(N=C2NC(=O)CS2)c1	i	-2.1%	2%	i	1.4e-08
O=C(CNC(=O)c1ccccc1)NCCc1nc2ccccc2[nH]1	i	1.2%	?	i	3.1e-08
CCOC(=O)c1ccc(NS(=O)(=O)c2ccc3[nH]c(=O)[nH]c3c2)cc1	i	-2.2%	11%	i	2e-09
Cc1ccc(-c2nc(CSCC(=O)N3CCN(c4ccccn4)CC3)c(C)o2)cc1	.	-1.1%	?	.	.
CC1CN(C(=O)c2cc3ccccc3oc2=O)CC(C)O1 (stereo not given)	.	1.1%	-1%	.	.
COc1ccc(CCNS(=O)(=O)c2ccc(C3CNC(=O)C3)cc2)cc1OC (stereo not given)	i	-1.7%	0%	i	3.2e-09
COc1ccc(CNC(=O)C2CCCN2S(=O)(=O)c2ccc(C)cc2)cc1 (stereo not given)	i	-0.3%	-4%	i	4e-08
Cc1ccc(N2CC(C(=O)NCc3cccnc3)CC2=O)cc1 (stereo not given)	i	-0.8%	-1%	i	1e-09
O=C(CSc1nnc(NC(=O)C2CCC2)s1)NC1CC1	i	0.3%	0%	i	1e-09
ClC(Br)=C(n1cnc2ccccc21)n1cnc2ccccc21	i	.	.	i	3.7e-08
COc1ccc(-c2nnc(Nc3nc4c(OC)cccc4s3)o2)c(OC)c1	i	0.9%	-14%	i	1e-09
Cn1c(=O)[nH]c(=O)c2c1nc(N1CCCCCC1)n2CCSc1nc2ccccc2o1	.	-1.3%	5%	.	.
CC(=O)OC/C=C(\C)CCC=C(C)C	.	-0.3%	3%	.	.
C=CCn1c(COc2ccc(CC)cc2)nnc1SCC(=O)N(C)C1CCS(=O)(=O)C1 (stereo not given)	i	1.8%	-1%	i	4.6e-08
CC(=O)Oc1ccc(C(c2ccc(OC(C)=O)cc2)c2ccccn2)cc1	i	-0.1%	?	i	8.5e-09&2.6e-08
OC[C@H]1O[C@@H]2O[C@H]3[C@H](O)[C@@H](O)[C@@H](O[C@H]4[C@H](O)[C@@H](O)[C@@H](O[C@H]5[C@H](O)[C@@H](O)[C@@H](O[C@H]6[C@H](O)[C@@H](O)[C@@H](O[C@H]7[C@H](O)[C@@H](O)[C@@H](O[C@H]1[C@H](O)[C@H]2O)O[C@@H]7CO)O[C@@H]6CO)O[C@@H]5CO)O[C@@H]4CO)O[C@@H]3CO	.	0.2%	?	.	.
CCOC(=O)C1C(=O)C=C(c2cccc(NS(C)(=O)=O)c2)CC1c1ccco1 (stereo not given)	i	0.4%	0%	i	1.6e-08
O=S(=O)(c1ccc(F)cc1)N1CCC(N2CCCC2)CC1	.	-1.0%	2%	.	.
COc1ccc(Oc2ncnc3c2oc2ccc(Br)cc23)cc1	i	1.0%	7%	i	5.7e-09
Cn1cccc1Cc1nnc(SCC(N)=O)n1-c1ccc(F)cc1	.	2.3%	1%	.	.
CC1CCN(S(=O)(=O)c2ccc(NC(=O)Cn3nnc(-c4ccccc4)n3)cc2)CC1	i	0.0%	-2%	i	1.6e-09
CN1CCN(S(=O)(=O)c2ccc(Sc3nc4ccccc4[nH]3)c3nsnc23)CC1	i	-0.5%	1%	i	2.5e-08
Cc1ccc(NC(=O)CS(=O)CC(=O)Nc2ccc3c(c2)OCO3)cc1Cl (stereo not given)	i	-1.1%	7%	i	1e-09
COC(=O)CNC(=O)C1CCCN1C(=O)CNC(=O)OC(C)(C)C (stereo not given)	i	-0.2%	-4%[11.4 µM]	i	6.9e-09
Cc1ccsc1-c1nc(CSCC(=O)NCCN2CCCC2)c(C)o1	i	0.1%	3%[11.4 µM]	i	2.4e-08
COc1ccc(N2CCN(C(c3ccccc3OC)c3nnnn3Cc3ccco3)CC2)cc1 (stereo not given)	i	0.9%	.	i	1.3e-08
O=C1CC(N2CCN(c3ccc(O)cc3)CC2)C(=O)N1Cc1cccs1 (stereo not given)	i	-0.1%	-9%	i	1e-09
CC(C)NC(=O)C1CCCN(S(=O)(=O)c2cccs2)C1 (stereo not given)	i	-0.2%	5%	i	1e-09
Cc1ccc(C#CC2C=CC(Oc3ccc4c(c3)OCO4)C(CO)O2)c(C)c1 (stereo not given)	.	6.0%[11.5 µM]	3%[11.4 µM]	.	.
CCCNc1nc2c(c(=O)n(C)c(=O)n2C)n1Cc1ccc(F)cc1	.	-1.0%	-5%	.	.

Structural class: the entries above containing a thiophene ring, fused or not
compound	Resorufin autofl	AID923	TSHR ag	A488 autofl	A647 autofl
CCOC(=O)Cn1c(C(=O)OCC)cc2sccc21	i	0.7%	?	i	5.3e-08
COC(=O)c1sc(S(=O)(=O)N2CCN(c3ccccc3)CC2)c(C(=O)OC)c1C	i	0.7%	9%	i	4.9e-09
Cc1ccsc1-c1nc(CSCC(=O)NCCN2CCCC2)c(C)o1	i	0.1%	3%[11.4 µM]	i	2.4e-08
O=C1CC(N2CCN(c3ccc(O)cc3)CC2)C(=O)N1Cc1cccs1 (stereo not given)	i	-0.1%	-9%	i	1e-09
CC(C)NC(=O)C1CCCN(S(=O)(=O)c2cccs2)C1 (stereo not given)	i	-0.2%	5%	i	1e-09

Later entries
compound	Resorufin autofl	AID923	TSHR ag	A488 autofl	A647 autofl
COC(=O)c1ccc(OCC(O)CN(CCO)CCO)cc1 (stereo not given)	i	2.1%	6%	i	3.3e-09
Cc1nc2c(c(C)nn2-c2ccccc2)c(C)c1Cl	.	0.7%	2%	.	.
Cc1c(C(=O)NCc2ccc3c(c2)OCO3)oc2ccc(S(=O)(=O)N3CCCC3)cc12	i	1.2%	4%[11.4 µM]	i	3.3e-08
Cc1cc(C)nc(N2CCC(C(=O)Nc3ccc(Oc4ccccc4)cc3)CC2)n1	i	1.4%	-2%	i	1e-09
CCCCOc1ccccc1NC(=O)c1ccc(=O)[nH]c1	i	0.1%	12%	i	6.4e-09
COc1ccccc1-c1cc(NCc2cccnc2)ncn1	i	0.0%	9%	i	1.7e-08
O=C(O)C1C2C=CC3(CN(C4CCCC4)C(=O)C13)O2 (stereo not given)	.	-1.4%	-6%	.	.
CCN=C1SC(CC(=O)Nc2ccccc2)C(=O)N1CC (stereo not given)	i	1.2%	-4%	i	3.3e-08
O=C(O)CCSc1nnc(-c2ccc3c(c2)OCO3)o1	i	-0.4%	6%	i	5.1e-08
O=c1nc(-c2ccccc2)cn[nH]1	i	0.6%	2%	i	1e-09
O=C(c1ccc(Cl)cc1)C1C2C(=O)N(c3ccccc3)C(=O)C2C2CCCN21 (stereo not given)	i	3.7%	18%	?	3.8e-08
COc1ccc(NC(=O)C(CCS(C)(=O)=O)NC(C)=O)cc1 (stereo not given)	i	0.2%	3%	i	1.6e-09
CC1CCCN(C(=O)c2cc3c(-c4ccc(Cl)cc4)nn(C)c3s2)C1 (stereo not given)	.	1.7%	?	.	.
O=C(OCC(=O)N1CCN(C(=O)c2ccco2)CC1)c1sc2ccccc2c1Cl	i	-1.0%	-5%	i	2.4e-09
Cc1cc(NC(=O)CSc2cn(CCNC(=O)c3ccc(F)cc3)c3ccccc23)no1	i	0.3%	24%	i	7.2e-09
OC(C#Cc1ccccn1)c1cccs1 (stereo not given)	i	9.3%	16%	i	2.7e-09
O=C(O)CCCC(=O)Nc1nc(-c2ccccc2)cs1	i	0.5%	-4%	i	3.1e-08
CCC1Oc2ccccc2N(CC(=O)NCCCN2CCCCC2C)C1=O (stereo not given)	i	0.3%	10%	i	3.1e-08
Cn1c(=O)c2c(nc(CN3CCN(Cc4ccccc4)CC3)n2CCN2CCOCC2)n(C)c1=O	i	1.6%	2%	i	1.2e-08
COCCCNC(=O)CCc1nc(-c2ccccc2)no1	i	0.7%	6%	i	1e-09
N#Cc1c(N)nc(SCc2ccccc2)c(C#N)c1-c1ccco1	i	4.6%	26%	i	2.4e-08
O=C(COc1ccccc1)Nn1cnc2ccccc21	i	-2.4%	-6%	i	5.4e-08
